# Sfp inh – qHTS Assay for Inhibitors of Bacillus subtilis Sfp phosphopantetheinyl transferase (PPTase) | Biochemical Sfp PPTase activity, qHTS | Potency, µM, inactives show max response, negative = inhibition, most hits filed as inhibitors | actives 3.5% (n = 310,000); active means well fitted inhibition curve with a large enough effect; inconclusive means small, poorly fitted or top-dose-only effect, or another doubt; inactive means no such curve, though single readings can be large or run the other way;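 further: the enzyme is Sfp with the accession as filed and its product quenches rhodamine fluorescence; potency means the concentration at half of the fitted maximal effect; 0% = enzyme reaction without inhibitor and -100% = no enzyme wells; top concentration of the series not given in the record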
#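 Buffer: 50 mM Hepes-Na pH 7.6, 10 mM MgCl2, 0.01% Nonidet P-40, 0.01% BSA. Enzyme 15 nM, pre-exposed to compound 15 min; substrates then added and fluorescence change tracked over 30 min.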
# Menin MLL FP FL – qHTS Assay for Inhibitors Targeting the Menin-MLL Interaction in MLL Related Leukemias: Competition With Fluorescein Labeled MLL-derived Peptide | Fluorescence polarization, fluorescein-MLL peptide displacement from menin | FP activity change, % at 61.4 µM | 290,000 tested, under 10 active; inconclusive = falling polarisation curve, or a change in total fluorescence; inactive = total fluorescence flat and polarisation flat or rising; no compound was filed as active; the % refers to the polarisation; negative = inhibition;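 further: % of control where 0% means no effect; inhibitors lower the polarisation; unlabelled MLL peptide was the positive control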
# TRPV1 PAM – HTS Assay for Compounds that Act as Potentiators of the Vanilloid Receptor 1; Transient receptor potential cation channel subfamily V member 1 (Homo sapiens), Q8NER1; TRPV1-expressing cells, Fluo-8 calcium influx, capsaicin EC20 potentiation; host cell line not named in the record; control for the full effect not named in the record; potentiation, % at 8.33 µM; actives 0.02% (n = 320,000); AID 540277, 2011; active means potentiation above 80%; inconclusive means 30% to 80%; inactive means below 30%; further: 0% is about no effect
# Target sequence (Q8NER1 whole entry, looked up): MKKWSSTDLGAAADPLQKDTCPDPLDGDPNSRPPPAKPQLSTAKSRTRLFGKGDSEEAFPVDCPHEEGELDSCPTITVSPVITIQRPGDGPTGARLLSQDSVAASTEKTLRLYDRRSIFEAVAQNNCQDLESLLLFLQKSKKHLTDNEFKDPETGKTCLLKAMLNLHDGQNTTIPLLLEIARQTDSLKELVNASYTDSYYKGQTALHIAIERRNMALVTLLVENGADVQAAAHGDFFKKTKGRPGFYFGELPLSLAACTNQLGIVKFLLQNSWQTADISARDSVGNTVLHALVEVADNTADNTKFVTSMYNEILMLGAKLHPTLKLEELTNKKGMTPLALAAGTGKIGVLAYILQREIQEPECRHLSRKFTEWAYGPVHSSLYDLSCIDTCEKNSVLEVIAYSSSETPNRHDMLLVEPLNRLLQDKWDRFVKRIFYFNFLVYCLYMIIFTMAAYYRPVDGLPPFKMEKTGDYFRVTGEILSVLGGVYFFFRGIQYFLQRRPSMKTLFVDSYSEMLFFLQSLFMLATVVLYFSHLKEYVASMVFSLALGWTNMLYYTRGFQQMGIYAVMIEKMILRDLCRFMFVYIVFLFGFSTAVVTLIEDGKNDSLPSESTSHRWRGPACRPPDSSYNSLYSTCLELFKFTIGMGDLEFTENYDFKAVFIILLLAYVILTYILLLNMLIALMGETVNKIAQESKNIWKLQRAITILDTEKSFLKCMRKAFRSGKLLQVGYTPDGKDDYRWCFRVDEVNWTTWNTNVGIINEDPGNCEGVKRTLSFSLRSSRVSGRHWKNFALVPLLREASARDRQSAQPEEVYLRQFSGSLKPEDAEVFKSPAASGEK
#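 Cells expressing TRPV1 were dye-loaded with Fluo-8 and read kinetically: 10 s baseline, 3 min after compound (agonist portion), then 2 min after EC20 capsaicin (allosteric enhancer portion). Calcium-bound dye fluorescence at 480/520 nm.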
# gsp ag – qHTS for Agonist of gsp, the Etiologic Mutation Responsible for Fibrous Dysplasia/McCune-Albright Syndrome: qHTS. Potency, µM (titrated, usually from 76.9 µM), inactives show top-dose activation (cAMP increase), most hits filed as activators. AID 624287, 2012. gsp mutant cells, cAMP HTRF, 30 min; control for the full effect not named in the record. actives 0.13% (n = 340,000); active = well fitted activation curve with a large enough effect; inconclusive = small, poorly fitted or top-dose-only effect, or another doubt; inactive = no such curve, though single readings can be large or run the other way; cell line not stated here;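 further: phosphodiesterase inhibitor Ro 20-1724 added with compounds to block cAMP breakdown; potency means the concentration at half of the fitted maximal effect; nearly all actives have a fitted effect of over 60% in size; about a fifth of the inactives were tested at one dose only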
#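 Cells stably selected in G418 were plated at 2000/well, grown 16-24 hr, then given compounds in DMSO with the PDE inhibitor […] (300 uM solution added) for 30 min at 37C; cAMP was read by HTRF.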
# D2 PAM – Beta-Arrestin HTS for Positive Allosteric Modulators of the Human D2 Dopamine Receptor: Potentiators; actives 0.23% (n = 360,000); potentiation, % (no concentration beside the values); AID 624464, 2012; DiscoveRx D2 beta-arrestin cells, luminescence, 90 min; 100% = 57 uM dopamine signal; D(2) dopamine receptor (Homo sapiens), P14416; active = potentiation of 50% or more; inconclusive = 30% to 50%; inactive = 30% or less;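 further: compound concentration not given in the record; tested on top of an EC20 dose of dopamine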
#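 PathHunter beta-arrestin assay in DiscoveRx D2 cells. Compounds were added with an EC20 of dopamine (50 nM final) for 90 min at 37 deg C. Luminescence was read 1 h after detection reagent, with 57 uM dopamine as the EC100 control.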
# gsp antagonist – qHTS for Antagonists of gsp, the Etiologic Mutation Responsible for Fibrous Dysplasia/McCune-Albright Syndrome: qHTS; Potency, µM (top dose mostly 76.9 µM), for inactives: at the top dose activity change, negative = inhibition, actives largely listed as inhibitors; actives 0.4% (n = 340,000); gsp-mutant cells, cAMP HTRF, 30 min; control for the full effect not named in the record; active = falling curve of any shape with a large fitted effect; inconclusive = falling curve, mostly with a smaller effect; inactive = flat or rising curve; cell line not stated here;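 further: intracellular cAMP measured with PDE inhibitor Ro 20-1724 present during compound exposure; potency means the concentration at half of the fitted maximal effect; on the % scale 0 is the no-effect control and ±100 the full control effect; nearly all actives have a fitted effect of over 65% in size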
#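 Cells, 2000/well, grown 16–24 h in DMEM 10% FBS with 0.5 mg/ml G418, then compounds plus […] (300 uM addition stock), 30 min at 37C. cAMP read by HTRF (cAMP-d2 and anti-cAMP antibody-K in lysis buffer) after 30 min RT.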
# ClpP mod – qHTS Assay for Activators of ClpP; Potency, µM (top dose mostly 57.5 µM), for inactives: at the highest dose activity change, negative = active; ATP-dependent Clp protease proteolytic subunit (Bacillus subtilis (strain 168)), P80244; purified B. subtilis ClpP, FRET peptide cleavage, 20 min; actives 1.9% (n = 340,000); active = well fitted falling curve with a large enough effect; inconclusive = small, poorly fitted or top-dose-only effect; inactive = no such curve, though single readings can be large or run the other way; further: potency means the concentration at half of the fitted maximal effect; the source files actives as falling curves though it sought activators and does not explain the sign; nearly all actives have a fitted effect of over 65% in size; many hits overshoot -100%
# Target sequence (P80244 whole entry, looked up): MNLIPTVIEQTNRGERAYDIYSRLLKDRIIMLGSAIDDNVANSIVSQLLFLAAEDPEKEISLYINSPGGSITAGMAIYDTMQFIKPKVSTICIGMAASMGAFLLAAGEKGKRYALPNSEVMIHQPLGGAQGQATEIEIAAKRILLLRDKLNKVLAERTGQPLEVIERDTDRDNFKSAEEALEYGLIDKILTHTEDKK
#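 Purified B. subtilis ClpP, 10 microg/mL final in Tris/HCl pH8 with KCl, BSA, glycerol and Tween-20, cleaved an Abz/nitrotyrosine-quenched decapeptide. Fluorescence (ex 320, em 430) was read at 0 and 20 min at room temperature. Delta was normalized to 5.8 microM ADEP and DMSO/no-enzyme controls.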
# Starred values were filed as active, the others as inactive; ? = inconclusive; nt = no result given; & = joins results of further samples; [ ] = dose if it differs, or a comment.
SMILES,Sfp inh,Menin MLL FP FL,TRPV1 PAM,gsp ag,D2 PAM,gsp antagonist,ClpP mod
Cc1ccccc1C(=O)N(CC(=O)Nc1sc(C)c(C)c1C(N)=O)C1CCCC1,7%,9.3,-9,6%[15.4 µM],4,-40%,1.8%
CCOC(=O)c1ccc(NC(=O)COC(=O)Cc2csc(-c3ccccc3)n2)cc1,15%,0.2,3,15%,4,-3%,-2.2%
Cc1cc(O)c(/C=N/Nc2ccccc2)c(=O)o1,18µM*,7.4,?,5%,-11,-11%,-4.1%
N#Cc1ccc(S(=O)(=O)NC[C@H]2O[C@@H](n3cnc4c(N)ncnc43)[C@H](O)[C@@H]2O)cc1,nt,nt,nt,nt,-4,14%,0.2%
CC(C)CN1C=C2C(=O)C(C)(OC(=O)CCc3ccccc3)C(=O)C=C2C=C1c1ccc(C#N)cc1 (stereo unspecified),-19%&-4%,-4.3[11.7 µM],6,nt,18,?,-5.9%
CSc1ccc(Cl)c(C(=O)NCCOc2ccccc2)c1,9%,1.6,nt,-2%,-1,-17%,-3.2%
FC(F)(F)c1nnc2ccc(N3CCOCC3)nn12,1%,0.2,-3,-11%,-2,3%,-1.3%
Cc1cc(C(=O)N/N=C/c2ccc([N+](=O)[O-])o2)c(C)o1,7%,-0.8,-3,-7%,-7,7%,1.0%
CCOc1ccc(N2CC(=O)N(c3ccc(OCC)cc3)CC2=O)cc1,5%,-2.2,0,-4%,-6,8%,-1.2%
CCOc1ccc(NS(=O)(=O)c2ccc(C(=O)NCC(c3ccccc3OC)N3CCCC3)cc2)cc1 (stereo unspecified),nt,nt,11,17%[15.4 µM],-12,10%,nt
CCN(CC)C(=O)C(=O)c1cn(CC(=O)N2CCc3ccccc3C2)c2ccccc12,-10%,4.6,6,0%[15.4 µM],-13,-8%,-1.1%
CC1Cc2cc(S(=O)(=O)N3CCN(C)CC3)ccc2N1C(=O)C1CC1 (stereo unspecified),9%,-0.2,6,-35%[inhibitor],-8,0%,-4.5%
O=C1OC(Oc2ccc(Br)cc2)(c2ccccc2)c2ccccc21 (stereo unspecified),nt,nt,nt,7%,-4,-18%,nt
O=C(COC(=O)CNC(=O)c1ccc(Cl)cc1Cl)NC1CC1,nt,nt,nt,-3%[15.4 µM],-13,-10%,-1.8%
COc1ccc(CCNC(=O)CN2C(=O)CSc3ccc(S(=O)(=O)N4CCOCC4)cc32)cc1OC,4%,nt,-4,13%,-10,?,-1.4%
COc1ccc(NC(=O)c2ccc3c(=O)n(-c4ccc(OC)cc4OC)c(=S)[nH]c3c2)c(OC)c1,19%,4.7,12,-5%[15.4 µM],-3,?,0.9%
COc1cc(Cl)c(C)cc1NC(=O)Cn1c(NCCO)nc2ccccc21,-5%,-1.7,12,-24%[15.4 µM],-5,4%,nt
Oc1ccc(-c2n[nH]c(=S)n2-c2ccc3c(c2)OCCO3)c(O)c1,?,nt,-14,?,-7,11%,0.0%
Cc1cccc(OCc2ccc(C(=O)Nc3ccc(F)cc3)cc2)c1,10%,2.5,15,13%,-17,7%,-1.2%
NC(=O)C1(N2CCCCC2)CCN(S(=O)(=O)c2ccc(Cl)s2)CC1,11%,nt,-4,1%,-7,-2%,-3.4%

# Reprinted from the part before: 2 entries, then new ones.
SMILES,Sfp inh,Menin MLL FP FL,TRPV1 PAM,gsp ag,D2 PAM,gsp antagonist,ClpP mod
Cc1cccc(OCc2ccc(C(=O)Nc3ccc(F)cc3)cc2)c1,10%,2.5,15,13%,-17,7%,-1.2%
NC(=O)C1(N2CCCCC2)CCN(S(=O)(=O)c2ccc(Cl)s2)CC1,11%,nt,-4,1%,-7,-2%,-3.4%
CC(Oc1ccc(Cl)cc1)C(=O)Nc1ncccn1 (stereo unspecified),-7%,3.7,11,-24%,6,-8%,-0.1%
CC(=O)Nc1ccc(S(=O)(=O)N2CCC(NC(C)=O)(c3cccc(F)c3)CC2)cc1,19%,1.5,-11,-4%,-10,10%,0.3%
CN(C(=O)COc1ncnc2sccc12)c1ccccc1,4%,7.0,0,?,-1,5%,0.7%
CCOc1ccc(OCCC(=O)N(CC)CC(=O)NCc2ccc(Cl)cc2)cc1,nt,nt,-20,4%[15.4 µM],-16,-13%,nt
Cc1ccc(C(=O)C=Cc2ccc3c(c2)OCO3)c(C)c1,nt,nt,nt,-1%,-9,nt,-1.9%
N#CC1=C(N)OC2=C(C(=O)CCC2)C1c1cc2c(cc1Cl)OCO2 (stereo unspecified),12%,3.0,10,?,0,-1%,nt
O=C1[C@H]2[C@@H](c3ccc(Cl)cc3)N3C(=O)N(c4cccc(Cl)c4)C(=O)[C@@]3(Cc3ccccc3)[C@H]2C(=O)N1C1CCCCC1,nt,nt,7,-41%[inhibitor],-14,-6%,0.7%
Cn1c(SCC(=O)Nc2ccc3nc(SCC(=O)N4CCCC4)sc3c2)nnc1-c1ccc(N)cc1,-28%,-1.3,-2,-35%[inhibitor],4,-9%,-11%
COc1ccc(-n2c(Cc3cccn3C)nnc2SCC(=O)Nc2ccccc2OC)cc1,9%,2.6,-4,-52%[inhibitor],-8,4%,-2.1%
Cc1cc(NC(=O)NCc2ccccc2)c(=O)n(Cc2ccc(F)cc2)c1,20%,14,6,-62%,0,11%,nt
Cc1ccc(C)c2[nH]c(=O)c(C(c3nnnn3CCc3ccccc3)N3CCOCC3)cc12 (stereo unspecified),7%,2.0,-28,11%,-14,-10%,28µM*
CCOC(=O)CN(Cc1sccc1C)C(=O)Nc1ccc(OC)cc1OC,6%,6.6,-7,?,-11,5%,0.3%
O=C(CCCn1c(SCC(=O)c2ccccc2)nc2ccccc2c1=O)NCC1CCCO1 (stereo unspecified),-21%,1.1,6,7%,-3,-6%,-0.9%
COc1ccc(CCN(C)C(=O)c2ccc(S(=O)(=O)NCc3ccco3)cc2)cc1OC,4%,1.5,-4,-22%,-13,-1%,-2.8%
Cc1cc(C)nc(NC(=O)/C=C/c2cccs2)c1,7%,-1.4,-16,-22%,-7,1%,-0.2%
CCn1c(=O)cc(N2CCCCC2)[nH]c1=O,25%,5.3,-6,1%,13,4%,1.7%
Cc1ccc(NC2=C(Cl)C(=O)c3ccccc3C2=O)cc1,16%,-0.8,-21,2%,21,2%,1.2%
CC(NC(=O)CN1c2cccc3cccc(c23)S1(=O)=O)c1ccc(S(N)(=O)=O)cc1 (stereo unspecified),nt,nt,-6,-20%,12,2%,?
O=C(NCCc1ccc(Cl)cc1)c1ccc2[nH]c(=O)c(=O)[nH]c2c1,5%,-1.1,1,-2%,-5,3%,4.6%
CCN(CC(=O)Nc1ccc(OC)cc1)CC(=O)N1CC(=O)Nc2ccccc21,nt,nt,-11,-1%,0,-1%,-0.1%
O=C(c1cnn(-c2ccccc2)c1-n1cccc1)N1CCN(C2CCCCC2)CC1,4%,-4.8,-17,-1%,1,15%,-0.2%
COc1ccc(CCN2CC(C(=O)NCC(c3ccccc3)N(C)C)CC2=O)cc1OC (stereo unspecified),nt,nt,nt,5%,-4,5%,nt
Cc1cc(C(=O)Nc2ccccc2C(=O)O)oc1C,5%,1.5,4,-28%,6,?,-3.1%
COCCN(C(=O)Nc1ccccc1OC)c1nc2ccccc2s1,-14%,1.1,2,14%,3,-27%,0.2%
CCN1C(=O)C(CC(=O)NCCc2ccccc2)N(NC(=O)c2cccnc2)C1=S (stereo unspecified),3%,0.9,1,-5%[15.4 µM],-6,8%,1.9%
Cc1cc(=O)[nH]c(=O)n1Cc1ccccc1,17%,-3.6,21,-15%[15.4 µM],3,12%,nt
CCOc1cc(CN2CCC(n3nccc3NC(=O)C3CC3)CC2)ccc1O,16%,-1.5,1,-44%[inhibitor],-16,6%,-1.0%
Cc1cccc(OCC(=O)Nc2ccc(S(=O)(=O)Nc3onc(C)c3C)cc2)c1C,11%,0.2,5,-58%[15.4 µM],6,-20%,0.7%
COc1ccc(-c2csc(NC(C)c3nc4cc(Cl)c(N5CCCCC5)cc4n3CCOCCO)n2)cc1 (stereo unspecified),nt,nt,nt,-13%,-6,-9%,-3.7%
CCn1c2ccccc2c2cc(NC(=O)COC(=O)c3cc(Cl)c(N)cc3OC)ccc21,?,3.7,-8,21%,3,-19%,-18%
COc1ccc(CNC(=O)COC(=O)c2cc3ccccc3cc2O)cc1OC,nt,nt,nt,-3%,?,-18%,-0.2%
CCN(CC)C(CNC(=O)CSc1nnnn1-c1ccc(C)c(C)c1)c1ccco1 (stereo unspecified),nt,nt,-18,-14%,-7,8%,0.2%
Cc1ccc2oc(Nc3nc(C)c(C)c(C)n3)nc2c1,4%,-1.4,6,14%,0,7%,1.5%
COc1cc(NC(=O)CN2CC(c3ccccc3)CC2=O)cc(OC)c1 (stereo unspecified),14%,-1.2,-19,-27%,-5,5%,-0.4%
CCOc1ccc(CCNC(=O)c2ccc3nc(CC)c(CC)nc3c2)cc1,20%,3.8,-7,5%,-5,2%,-2.0%
CCOC(=O)CON1C(=O)C(=O)N(OCC(=O)OCC)[C@H]2CCCC[C@H]21,12%,4.4,-16,24%,-12,8%,nt
COc1cc(-c2csc(C)n2)ccc1O,10%,5.7,-9,-34%,-16,4%,0.6%
CCC1(C(=O)OC)NC(c2ccco2)C2C(=O)N(c3ccccc3)C(=O)C21 (stereo unspecified),-12%,-2.6,-4,-13%,-8,-9%,-3.6%
CCNC(=S)Nc1cccc(F)c1C,-4%,-0.5,15,-2%[15.4 µM],-7,-17%,nt
CCOc1ccc(C(=O)COC(=O)CN2C(=O)NC3(CCCCC3C)C2=O)cc1 (stereo unspecified),nt,nt,-33,-41%[inhibitor],1,4%,-0.8%
